AF4-AF9 inh: inhibitors of AF4 peptide binding to AF9, primary screen, biochemical, AlphaScreen, biotin-AF4 peptide, FLAG-AF9, single point | inhibition, % at 10 µM | 350,000 tested, 0.47% active | AID 651704, 2012 | Protein AF-9 (Homo sapiens), P42568;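 active = every replicate reaching a set inhibition limit, whatever the replicate mean, cut at about 25% in these data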;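 also: 0% = plate neutral control median and 100% = total signal loss; the record names both 10 and 1 µM as test concentration; the first replicate is given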
rRNA inh HTS: reduced GFP signal of wild-type E. coli, primary screen, bacterial rRNA inhibitor project, GFP/RFP fluorescence, OD600, single point. 350,000 tested, 1.6% active. AID 720706, 2013. E. coli WT GFP vs humanized-ribosome RFP mutants, 24 h; active compounds read low; DMSO median 0, no signal -100. GFP signal change (wild-type ribosome), % (no concentration beside the values);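 active = significant combined selectivity score with lowered wild-type GFP, culture density cut under 30%, mutant RFP and density less affected; inactive = any of these conditions unmet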; also: one replicate is shown; some compounds called inactive have numbers as strong as hits
Vif A3G: inhibitors of Vif binding to APOBEC3G peptide, primary screen, biochemical, TR-FRET, GST-Vif 1-94, biotin-A3G peptide, dose response retest (AID 1117319). one-dose inhibition, %; IC50 in µM for titrated hits. 260,000 tested, 0.57% active. TR-FRET GST-Vif / biotin-A3G peptide binding; higher % means a stronger effect; test concentration not given here; strong numbers were not always called active;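 active = above the screen mean plus three standard deviations and confirmed in dose response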;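 also: Vif residues 1-94 fused to GST binding biotinylated APOBEC3G peptide 110-148; 0% = full assay without inhibitor and 100% = GST in place of GST-Vif; retest series ran down from 100 µM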
HNF4A DNA FP: change in binding of human HNF4A to DNA, primary screen, biochemical, fluorescence polarization, FITC-DNA; 1 h; activity change, % at 10 µM; 360,000 tested, 0.3% active; AID 1224865, 2016; in the data active = activity change above about 30%, passing the limit was not always enough;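 also: controls were the assay level and a saturating level of protein; the project sought stronger binding though the title names inhibitors; some compounds called inactive have numbers as strong as hits; positive values seem to mean higher polarization but the record does not say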
Target sequence (P41235 whole entry, looked up): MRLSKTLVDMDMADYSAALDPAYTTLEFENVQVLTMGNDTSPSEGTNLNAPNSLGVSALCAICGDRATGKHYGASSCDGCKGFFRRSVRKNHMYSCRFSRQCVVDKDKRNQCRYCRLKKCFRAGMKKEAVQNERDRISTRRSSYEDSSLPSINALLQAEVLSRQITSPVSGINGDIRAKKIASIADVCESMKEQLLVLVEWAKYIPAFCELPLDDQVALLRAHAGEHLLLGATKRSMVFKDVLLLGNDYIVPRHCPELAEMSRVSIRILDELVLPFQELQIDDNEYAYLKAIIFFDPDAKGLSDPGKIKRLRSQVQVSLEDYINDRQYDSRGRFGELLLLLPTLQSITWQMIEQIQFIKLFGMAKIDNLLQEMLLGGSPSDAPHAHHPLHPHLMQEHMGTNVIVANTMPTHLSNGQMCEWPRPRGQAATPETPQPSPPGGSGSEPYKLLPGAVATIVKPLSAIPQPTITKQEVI
Ecoli growth: E. coli growth inhibition, primary screen, OD600. AID 1053175, 2014. Escherichia coli growth, 23 h; active compounds read low. 330,000 tested, 0.21% active. OD600 absorbance (concentration not given with the values);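 active = OD600 absorbance below the run mean of sample wells minus 3.6 SD, in any replicate, cut at about 0.56 in these data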;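 also: stock transfer was 300 nL into about 60 µL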
ALR inh: inhibitors of human ALR sulfhydryl oxidase, primary screen, biochemical, H2O2 detection, HRP-luminol luminescence, single point; FAD-linked sulfhydryl oxidase ALR (Homo sapiens), P55789; purified ALR, DTT oxidation; inhibition, % (no concentration beside the values); 290,000 tested, 3.8% active; AID 485317, 2010;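 active = mean and each replicate at 75% or more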;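 also: stock transfer was 7.5 nL into about 7.5 µL; 0% = neutral wells and 100% = wells with inactivated enzyme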
Target sequence (P55789 whole entry, looked up): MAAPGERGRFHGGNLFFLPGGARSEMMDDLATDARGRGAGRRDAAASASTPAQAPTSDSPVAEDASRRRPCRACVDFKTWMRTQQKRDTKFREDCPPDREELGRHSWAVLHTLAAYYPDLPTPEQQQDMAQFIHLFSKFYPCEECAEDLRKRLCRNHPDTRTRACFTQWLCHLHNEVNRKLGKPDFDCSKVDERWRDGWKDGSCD
FGF22 binding: binders of human FGF22 protein, primary screen, FGF22 synaptogenesis inhibitor project, biophysical, thermal shift, single point; Fibroblast growth factor 22 (Homo sapiens), Q9HCT0; recombinant FGF22 thermal shift, SYPRO orange fluorescence; percent of sucrose octasulfate shift, DMSO zero; calls only at 9.99 µM; 340,000 tested, 1.5% active; AID 651658, 2012;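 active = melting point raised past a set limit in the mean and every replicate; three in four hits are not shown here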
Target sequence (Q9HCT0 whole entry, looked up): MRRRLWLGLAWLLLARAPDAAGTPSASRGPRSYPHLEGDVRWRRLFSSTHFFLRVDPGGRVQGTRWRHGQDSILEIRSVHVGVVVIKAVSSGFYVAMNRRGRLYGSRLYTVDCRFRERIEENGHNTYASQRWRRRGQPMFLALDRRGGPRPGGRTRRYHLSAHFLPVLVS
rRNA inh HTS OD600: also measured in rRNA inh HTS; calls as there; OD600 change, %; measured here: OD600 growth;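 optical density of the mix in the first replicate; 0 = DMSO median and -100 = no signal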
rRNA inh HTS RFP: further read-out of rRNA inh HTS, marked with its call; RFP signal change, %; measured here: RFP humanized mutant strains;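 first replicate; 0 = DMSO median and -100 = no signal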
Starred values were filed as active, the others as inactive. The list is partial, so the mix of outcomes need not match the whole.

For Cc1ccccc1C(=O)N1CCC2CC1c1cc(Cl)ccc12 (stereo not drawn) the results were AF4-AF9 inh -2.8, rRNA inh HTS -18.1, HNF4A DNA FP -0.9, FGF22 binding inactive, rRNA inh HTS OD600 -40.7 and rRNA inh HTS RFP -7.3.
CCCCn1c(N)c(N(CCC(C)C)C(=O)C2CCCN(C(=O)c3ccc(Cl)cc3)C2)c(=O)[nH]c1=O (stereo not drawn) was read as AF4-AF9 inh 1.7, rRNA inh HTS -1.7, Vif A3G 0.1%, HNF4A DNA FP 0.1, Ecoli growth 0.712, ALR inh -10.3, FGF22 binding inactive, rRNA inh HTS OD600 -8.6 and rRNA inh HTS RFP 1.2.
`Cc1ccccc1NCC(=O)Nc1cc(S(=O)(=O)N2CCCCC2)ccc1C` gave AF4-AF9 inh -3.3, rRNA inh HTS 5.5, Vif A3G -1.4%, HNF4A DNA FP 3.8, Ecoli growth 0.684, ALR inh -0.5, FGF22 binding inactive, rRNA inh HTS OD600 16.3 and rRNA inh HTS RFP 5.8.
For CC1(C)NC(=O)N(CC(=O)Nc2ccc(-c3ccccc3)cc2)C1=O the results were AF4-AF9 inh -3.8, rRNA inh HTS 9.7, HNF4A DNA FP -0.2, FGF22 binding inactive, rRNA inh HTS OD600 11.6 and rRNA inh HTS RFP -1.2.
`CCCNC(=O)C[C@@H]1CC[C@H]2[C@@H](COc3ccc(NC(=O)NC(C)C)cc3C(=O)N2C)O1` gave AF4-AF9 inh -1.2, rRNA inh HTS -1.4, FGF22 binding inactive, rRNA inh HTS OD600 1.1 and rRNA inh HTS RFP -1.7.
Cc1cccc(S(=O)(=O)N(C)C[C@@H]2OCc3cnnn3CCCC(=O)N([C@@H](C)CO)C[C@H]2C)c1 was read as AF4-AF9 inh 0.7, rRNA inh HTS -1.2, FGF22 binding inactive, rRNA inh HTS OD600 -0.6 and rRNA inh HTS RFP 7.5.
`CCCC#Cc1ccc([C@H]2[C@@H](CO)N3CCCCN(S(=O)(=O)Cc4ccccc4)C[C@@H]23)cc1` gave AF4-AF9 inh 2.4, rRNA inh HTS -1.0, FGF22 binding inactive, rRNA inh HTS OD600 -12.3 and rRNA inh HTS RFP 4.9.
For COc1ccc(OC)c(C2=NOC(C(=O)Nc3cccc(C(C)=O)c3)C2)c1 (stereo not drawn) the results were Vif A3G 2.0%, HNF4A DNA FP -1.1, Ecoli growth 0.651 and ALR inh 4.5.
For Cc1ccc(CNC(=O)C(C(=O)NCc2ccc(C)o2)c2ncc(C(F)(F)F)cc2Cl)o1 the results were AF4-AF9 inh 0.2, rRNA inh HTS 6.6, HNF4A DNA FP 5.5, Ecoli growth 0.632, ALR inh -13.2, FGF22 binding inactive, rRNA inh HTS OD600 -0.2 and rRNA inh HTS RFP -1.0.
C=C(c1cccc2ccccc12)P(=O)(O)O was read as Vif A3G 10.8%, HNF4A DNA FP -0.1 and Ecoli growth 0.702.
Screening CCN(CC)CCNC(=O)c1cc2c(s1)-c1ccccc1SC2 returned AF4-AF9 inh 11.7, rRNA inh HTS -1.2, Vif A3G -2.3%, HNF4A DNA FP 4.2, Ecoli growth 0.61, ALR inh -5.3, FGF22 binding inactive, rRNA inh HTS OD600 -18.9 and rRNA inh HTS RFP 2.1.
Screening CC(=O)N1[C@H](CN(C)C(=O)c2ccccc2F)[C@@H](c2ccccc2)[C@@H]1CO returned AF4-AF9 inh -11.5, rRNA inh HTS 0.2, FGF22 binding inactive, rRNA inh HTS OD600 1.6 and rRNA inh HTS RFP -2.2.
Screening COc1ccc(-c2csc(Cc3nnc4n3CCCCC4)n2)cc1OC returned Vif A3G 11.9%, HNF4A DNA FP -1.1, Ecoli growth 0.669 and ALR inh 97.5*.
For O=Cc1ccccc1OCCCOc1cccc2cccnc12 the results were AF4-AF9 inh -3.5, rRNA inh HTS -2.9, HNF4A DNA FP 2.5, Ecoli growth 0.697, ALR inh -17.6, FGF22 binding inactive, rRNA inh HTS OD600 -5.6 and rRNA inh HTS RFP 2.4.
`Cc1ccc(S(=O)(=O)N(C)C[C@H]2OCCCC[C@H](C)Oc3ccc(N(C)C)cc3C(=O)N([C@H](C)CO)C[C@H]2C)cc1` gave AF4-AF9 inh 6.7, rRNA inh HTS -1.5, FGF22 binding inactive, rRNA inh HTS OD600 5.4 and rRNA inh HTS RFP 0.1.
Screening O=C([C@@H]1[C@@H](CO)[C@@H]2Cn3c(cccc3=O)[C@@H]2N1CC1CC1)N1CCc2ccccc2C1 returned AF4-AF9 inh 0.4, rRNA inh HTS -3.1, FGF22 binding inactive, rRNA inh HTS OD600 -0.3 and rRNA inh HTS RFP -2.0.
For COCCN(C(=O)COC(=O)c1c(C)nn(-c2ccccc2)c1C)c1c(N)n(Cc2ccccc2)c(=O)[nH]c1=O the results were AF4-AF9 inh 1.4, rRNA inh HTS 11.9, Vif A3G -1.8%, HNF4A DNA FP -3.7, FGF22 binding inactive, rRNA inh HTS OD600 8.3 and rRNA inh HTS RFP 11.2.
COc1ccccc1CCC(=O)OCC(=O)Nc1cc(C)nn1-c1ccccc1 was read as AF4-AF9 inh 0.4, rRNA inh HTS -2.4, HNF4A DNA FP -0.7, Ecoli growth 0.681, ALR inh -4.3, FGF22 binding inactive, rRNA inh HTS OD600 0.2 and rRNA inh HTS RFP 0.2.
For CCOC(=O)c1ccc(C(=O)NNC(=O)C2C3C=CC(C3)C2C(=O)O)cc1 (stereo not drawn) the results were AF4-AF9 inh -1.1, rRNA inh HTS 8.0, HNF4A DNA FP 1.8, Ecoli growth 0.636, ALR inh -6.6, FGF22 binding inactive, rRNA inh HTS OD600 11.8 and rRNA inh HTS RFP 3.6.
Screening Cc1noc(NS(=O)(=O)c2ccc(NC(=O)c3nn(-c4ccccc4)ccc3=O)cc2)c1C returned AF4-AF9 inh 0.2, rRNA inh HTS 9.3, HNF4A DNA FP -3.1, ALR inh -2.8, FGF22 binding inactive, rRNA inh HTS OD600 26.2 and rRNA inh HTS RFP 3.9.

Fetched one by one from the entries so far (2):
Screening O=C([C@@H]1[C@@H](CO)[C@@H]2Cn3c(cccc3=O)[C@@H]2N1CC1CC1)N1CCc2ccccc2C1 returned AF4-AF9 inh 0.4, rRNA inh HTS -3.1, FGF22 binding inactive, rRNA inh HTS OD600 -0.3 and rRNA inh HTS RFP -2.0.
Screening CC(=O)N1[C@H](CN(C)C(=O)c2ccccc2F)[C@@H](c2ccccc2)[C@@H]1CO returned AF4-AF9 inh -11.5, rRNA inh HTS 0.2, FGF22 binding inactive, rRNA inh HTS OD600 1.6 and rRNA inh HTS RFP -2.2.

(listing goes on)
`O=C(C1CCOCC1)N1[C@H](CO)[C@@H](c2ccccc2)C12CN(CCC(F)(F)F)C2` gave AF4-AF9 inh -1.1, rRNA inh HTS 3.1, FGF22 binding inactive, rRNA inh HTS OD600 6.4 and rRNA inh HTS RFP 0.1.
`COc1ccc(CCNC(=O)CN(C)S(=O)(=O)c2ccc(Br)s2)cc1OC` gave HNF4A DNA FP -1.8, Ecoli growth 0.71 and ALR inh 0.3.
For CC(=O)N1c2ccc(S(=O)(=O)NCCC(=O)Nc3ccc(C)cn3)cc2CC1C (stereo not drawn) the results were AF4-AF9 inh -1.1, rRNA inh HTS 0.8, Vif A3G 1.0%, HNF4A DNA FP 1.9, Ecoli growth 0.662, ALR inh 3.5, FGF22 binding inactive, rRNA inh HTS OD600 7.4 and rRNA inh HTS RFP 1.7.
Screening CCOc1ccc2nc(SC3CC(=O)N(c4ccc(OC)cc4OC)C3=O)sc2c1 (stereo not drawn) returned AF4-AF9 inh -1.6, rRNA inh HTS 5.9, Vif A3G 8.5%, HNF4A DNA FP 0.6, Ecoli growth 0.712, ALR inh -4.8, FGF22 binding inactive, rRNA inh HTS OD600 -1.4 and rRNA inh HTS RFP 0.8.
For CN(C)S(=O)(=O)c1cccc(NC(=O)c2cc3c(=O)n4ccccc4nc3s2)c1 the results were AF4-AF9 inh -0.8, rRNA inh HTS 4.0, HNF4A DNA FP 6.6, ALR inh 2.1, FGF22 binding inactive, rRNA inh HTS OD600 11.2 and rRNA inh HTS RFP -4.4.
`Cc1cccc(NC(=O)c2ccc([N+](=O)[O-])o2)c1` gave AF4-AF9 inh 3.5, rRNA inh HTS -25.8, Vif A3G 12.3%, HNF4A DNA FP 1.9, Ecoli growth 0.475*, ALR inh -31.3, rRNA inh HTS OD600 -36.6 and rRNA inh HTS RFP -14.7.
Screening CC1CCc2c(sc(NC(=O)CSc3ncnc4c3cnn4-c3ccccc3Cl)c2C#N)C1 (stereo not drawn) returned Vif A3G 2.2%, HNF4A DNA FP 4.1, Ecoli growth 0.767 and ALR inh 2.7.
`COC(=O)c1cc(NC(=O)Cc2coc3cc(OC)ccc23)cc(C(=O)OC)c1` gave Vif A3G 1.9%, HNF4A DNA FP 6.6 and Ecoli growth 0.709.
For C[C@@H]1CCCCO[C@@H](CN(C)S(=O)(=O)c2ccccc2)[C@H](C)CN([C@H](C)CO)C(=O)c2cc(NS(C)(=O)=O)ccc2O1 the results were AF4-AF9 inh -0.9, rRNA inh HTS -0.7, FGF22 binding inactive, rRNA inh HTS OD600 -2.2 and rRNA inh HTS RFP -2.9.
For CCn1c(C)nc([N+](=O)[O-])c1C(=O)O the results were AF4-AF9 inh -0.2, rRNA inh HTS 26.8, Vif A3G -5.9%, HNF4A DNA FP 0.9, Ecoli growth 0.721, ALR inh 2.9, FGF22 binding inactive, rRNA inh HTS OD600 14.5 and rRNA inh HTS RFP -1.0.
Screening CC(C)(C)CC(=O)N[C@@H](Cc1ccccc1)c1nc2ccccc2[nH]1 returned HNF4A DNA FP -2.7, Ecoli growth 0.697 and ALR inh -22.8.
Screening COc1ccc(NC(=O)N(C)C[C@@H]2OCCCC[C@@H](C)Oc3ccc(N(C)C)cc3C(=O)N([C@H](C)CO)C[C@@H]2C)cc1 returned AF4-AF9 inh -4.8, rRNA inh HTS -0.3, FGF22 binding inactive, rRNA inh HTS OD600 -2.0 and rRNA inh HTS RFP -1.6.
For Cc1cc2ncn(CCOc3ccccc3C#N)c2cc1C the results were Vif A3G -5.2%, HNF4A DNA FP -0.4, Ecoli growth 0.638 and ALR inh 3.7.
COc1ccc(S(=O)(=O)NC2CCCCC2)cc1C was read as AF4-AF9 inh -1.1, rRNA inh HTS -6.3, Vif A3G 2.6%, HNF4A DNA FP 1.0, Ecoli growth 0.677, ALR inh 1.5, FGF22 binding inactive, rRNA inh HTS OD600 -5.0 and rRNA inh HTS RFP 2.4.
COc1ccc(NCc2ccsc2)cc1 was read as AF4-AF9 inh 1.5, rRNA inh HTS 9.4, HNF4A DNA FP -0.7, Ecoli growth 0.668, ALR inh 56.9, FGF22 binding inactive, rRNA inh HTS OD600 15.4 and rRNA inh HTS RFP 1.4.

Filtered by structure: those above containing a CF3 group (2)
For Cc1ccc(CNC(=O)C(C(=O)NCc2ccc(C)o2)c2ncc(C(F)(F)F)cc2Cl)o1 the results were AF4-AF9 inh 0.2, rRNA inh HTS 6.6, HNF4A DNA FP 5.5, Ecoli growth 0.632, ALR inh -13.2, FGF22 binding inactive, rRNA inh HTS OD600 -0.2 and rRNA inh HTS RFP -1.0.
`O=C(C1CCOCC1)N1[C@H](CO)[C@@H](c2ccccc2)C12CN(CCC(F)(F)F)C2` gave AF4-AF9 inh -1.1, rRNA inh HTS 3.1, FGF22 binding inactive, rRNA inh HTS OD600 6.4 and rRNA inh HTS RFP 0.1.
